A488 fluor = qHTS Assay for Spectroscopic Profiling in A488 Spectral Region; compound autofluorescence, A488 spectral region, dye equivalency; hits give high values; 0.1% of 59,000 active; max dye equivalency, M; active = above 10 nM dye equivalent; inconclusive = 1 to 10 nM; inactive = 1 nM or less; about half of its hits are not listed in these tables;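 also: highest value over a series up to 38 µM; compound alone in buffer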
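Compound autofluorescence was read in 100 mM Tris pH 8.0 after 15 min at room temperature, ex 480 nm/em 540 nm. Intensities were converted to A488 dye-equivalent concentration using an on-plate six-point A488 standard curve.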
AID923 = qHTS Assay for Allosteric/Competitive Inhibitors of Caspase-1: Spectroscopic Profiling in AFC Spectral Region. 1.1% of 75,000 active. Potency, µM (doses to about 57.5 µM), inactives show at the highest dose fluorescence increase, most hits filed as activators. AID 923, 2007. compound fluorescence, AFC spectral region (405/520 nm); almost no hit is shown here; active = well fitted activation curve with a large enough effect; inconclusive = small, poorly fitted or top-dose-only effect;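 also: potency is read from the fitted curve at half-maximal effect; 0% is about no effect; scaled to a free AFC standard on each plate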
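Compound autofluorescence profiled at 405 nm ex/520 nm em during kinetic caspase 1 run (50 nM enzyme, 5 uM Ac-WEHD-AFC, HEPES pH 7.5, 10 mM DTT). Titration up to 57 uM; baseline from regression intercept, normalized to AFC standard curve.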
Resorufin fluor = qHTS Assay for Spectroscopic Profiling in Resorufin Spectral Region | Compound fluorescence, resorufin region 547/598 nm, buffer; hits give high values | max dye-equivalent concentration, M | 0.04% of 59,000 active | AID 588, 2007; active = above 10 nM dye equivalent; inconclusive = 1 to 10 nM; inactive = 1 nM or less; a few of its hits are not listed in these tables; also: highest value over a series up to 38 µM
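Compounds in 100 mM Tris, pH 8.0, incubated 15 min at room temperature, then fluorescence read at 547 nm excitation/598 nm emission. Signal converted to dye-equivalent concentration via an on-plate six-point resorufin standard curve, per compound concentration.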
TSHR ag = qHTS Assay for Agonists of the Thyroid Stimulating Hormone Receptor | 0.48% of 73,000 active | Potency, µM (series often up to 57.1 µM), inactives show top-dose activation, usual class: activators | AID 926, 2007 | HEK293-CNG-TSHR cells (CNG channel as cAMP sensor), membrane potential dye, cAMP; active = well fitted activation curve of enough size with the parental cells flat; inconclusive = any curve in the parental cells; inactive = parental cells flat and receptor cells flat or falling; also: potency is read from the fitted curve at half-maximal effect; % of control where 0% means no effect; weak receptor curves with flat parental cells got no call and are not listed
Target sequence (P16473 whole entry, looked up): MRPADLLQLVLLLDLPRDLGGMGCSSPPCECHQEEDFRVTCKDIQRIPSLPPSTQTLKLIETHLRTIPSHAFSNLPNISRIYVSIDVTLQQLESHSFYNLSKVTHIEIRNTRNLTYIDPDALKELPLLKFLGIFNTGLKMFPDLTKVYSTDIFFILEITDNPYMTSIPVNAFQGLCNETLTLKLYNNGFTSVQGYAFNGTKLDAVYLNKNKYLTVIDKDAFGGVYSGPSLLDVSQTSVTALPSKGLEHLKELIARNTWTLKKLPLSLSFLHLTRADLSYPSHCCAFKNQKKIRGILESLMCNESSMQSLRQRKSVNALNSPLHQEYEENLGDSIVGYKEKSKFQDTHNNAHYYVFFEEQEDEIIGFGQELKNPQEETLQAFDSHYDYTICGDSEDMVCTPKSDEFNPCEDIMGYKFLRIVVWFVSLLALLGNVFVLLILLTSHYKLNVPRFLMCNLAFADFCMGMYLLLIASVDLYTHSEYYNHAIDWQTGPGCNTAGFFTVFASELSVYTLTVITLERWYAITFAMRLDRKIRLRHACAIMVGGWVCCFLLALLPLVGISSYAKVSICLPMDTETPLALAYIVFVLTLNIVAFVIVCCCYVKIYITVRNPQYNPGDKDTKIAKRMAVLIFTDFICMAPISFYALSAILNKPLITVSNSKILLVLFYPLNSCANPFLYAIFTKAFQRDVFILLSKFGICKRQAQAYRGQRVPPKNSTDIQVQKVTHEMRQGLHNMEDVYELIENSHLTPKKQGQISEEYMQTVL
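HEK 293 cells stably expressing TSHR and a modified CNG channel, with CNG-only parental cells as counterscreen, were preloaded 60 min at room temperature with membrane potential dye containing 100 uM RO 20-1724. Compound exposure was 30 min, and depolarization was read as fluorescence at 590 nm.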
A647 fluor = qHTS Assay for Spectroscopic Profiling in A647 Spectral Region; Compound fluorescence, A647 channel (570/671 nm), Tris buffer; max dye-equivalent concentration, M; 59,000 tested, under 10 active; AID 592, 2007; active means above 1 µM dye equivalent; inconclusive means 0.1 to 1 µM; inactive means 0.1 µM or less;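 also: values scaled relative to a standard on each plate; highest value over a series up to 38 µM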
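Tris 100 mM pH 8.0; cpd + A647 stds pin-transferred; 15 min RT; CCD imager, ex 570/em 671. Output = A647-equivalent conc. per cpd conc.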
Active calls of the source: *; i = inactive; ? = inconclusive; . = no result given; [ ] = remark or other dose. An excerpt (hit frequency here may not be typical).

compound	A647 fluor	A488 fluor	Resorufin fluor	AID923	TSHR ag
CN(C(=O)c1cccc(C#N)c1)c1nnc(C2CCCO2)s1 (stereo not drawn)	1e-09	i	i	0.5%	-1.3%
Nc1c[n+](N2CCOCC2)no1	.	.	.	-0.5%	-2.6%
CC(C)CC(=O)N1CCN(S(=O)(=O)c2ccc(F)cc2)CC1	2.42e-08	i	i	1.7%	1.1%
COCCNC(=O)CN(C(=O)Cn1nnc2ccccc21)c1ccccc1	5.77e-08	i	i	1.0%	-0.4%
O=C(Nc1nn[nH]n1)c1cccc(Oc2ccccc2)c1	7.5e-09	i	i	0.3%	3.0%
CCOC(=O)C1CCN(C(=O)CCCCn2c(=O)[nH]c3ccccc3c2=O)CC1	1e-09	i	i	0.8%	-0.1%
CCc1ccccc1OCCCCCNCCO	.	.	.	2.5%	-2.3%
O=C(CSc1ncccn1)NCc1ccc(F)cc1	2.1e-09	i	i	0.0%	-0.2%[11.4 µM]

Following part.
compound	A647 fluor	A488 fluor	Resorufin fluor	AID923	TSHR ag
Cn1ncc2c(Nc3ccc(-c4ccccc4)cc3)ncnc21	6.5e-09	i	i	-2.7%	-1.7%
Cc1cc(C)c2c(CN3CCN(C/C=C/c4ccccc4)CC3)cc(=O)oc2c1	2.27e-08	i	i	0.4%	-48.3%[inhibitor]
Cc1[nH]nc2c1C(c1ccccn1)N(c1ccc(Br)cc1)C2=O (stereo not drawn)	4.17e-08	i	i	-3.2%	2.8%
CC(C)CN1CCCC2(CCN(S(=O)(=O)c3ccccc3)CC2)C1	1e-09	i	i	2.5%	?
O=C(CN1CCCCC1)Nc1ccccc1NC(=O)CN1CCCCC1	3.89e-08	i	i	0.3%	10.8%
Cc1cc(NCCOCCO)n2ncc(-c3ccc(Cl)cc3)c2n1	1e-09	i	i	-1.5%	?
COC(=O)c1nc(N)sc1-c1ccccc1	2.9e-09	i	i	-1.6%	0.3%
O=C(Nc1cc(Cl)ccc1N1CCOCC1)c1cnccn1	2.93e-08	i	i	-1.6%	?

Following part
compound	A647 fluor	A488 fluor	Resorufin fluor	AID923	TSHR ag
CC(C)(C)NC(=O)CN(C(=O)C1CSC(=O)C1)c1ccc2c(c1)OCCO2 (stereo not drawn)	1.95e-08	i	i	0.2%	7.0%
O=C(NC1CCCC1)C1CCCN1S(=O)(=O)c1cccc2cccnc12 (stereo not drawn)	.	.	.	-1.1%	11.2%
Nc1c(C(=O)OCC2CCCO2)c2nc3ccccc3nc2n1C1CCCCC1 (stereo not drawn)	1e-09	i	i	18.9%	.
O=C(O)CCCCC1CCSS1 (stereo not drawn)	.	.	.	-5.2%	?
Cc1c(C(=O)OCC2CCCO2)[nH]c2c1C(=O)CC(c1ccc(N(C)C)cc1)C2 (stereo not drawn)	.	.	.	1.3%	23.8%
Nn1c(SCC(=O)Nc2ccc(F)cc2F)nnc1-c1cccnc1	1e-09	i	i	-0.3%	10.7%
Cn1[nH]c(=O)c2ccccc2c1=O	1e-09	i	i	3.4%	-1.8%[11.4 µM]
COc1ccc(OCC(=O)Nc2ccccc2C(=O)N2CCCC2)cc1	1e-09	i	i	0.7%	-3.0%

Carrying on.
compound	A647 fluor	A488 fluor	Resorufin fluor	AID923	TSHR ag
O=C(NCc1ccc(N2CCCC2=O)cc1)c1cn(CCc2ccccc2)nn1	5.59e-08	i	i	0.4%	-0.4%
CN(CCCNC(=O)CN1C(=O)CC(C)(C)S(=O)(=O)c2ccccc21)C1CCCCC1	3.9e-09	i	i	1.2%	2.2%[11.4 µM]
COc1ccc(C2/C(=C(\O)c3cc(C)ccc3C)C(=O)C(=O)N2CCN(C)C)cc1OC (stereo not drawn)	1.45e-08	i	i	0.9%	1.9%
COc1ccc(N2CCN(C(=O)Cn3nnc(-c4cccs4)n3)CC2)cc1	4.4e-09	i	i	0.5%	-0.4%
CC(C(=O)OCc1nnc(-c2ccccc2)o1)N1C(=O)c2ccccc2C1=O (stereo not drawn)	3.5e-08	i	i	-0.8%	3.2%[11.4 µM]
CCOc1ccccc1-n1c(COc2ccc(C)cc2)nnc1SCC(N)=O	3.4e-08	i	i	2.4%	5.3%
Cn1nnnc1SCC(=O)c1c(N)n(C)c(=O)n(C)c1=O	1e-09	i	i	-1.7%	-1.7%
COC(=O)Nc1nnc(Cc2ccc(OC)cc2)s1	9.4e-09	i	i	1.4%	10.3%

(further entries)
compound	A647 fluor	A488 fluor	Resorufin fluor	AID923	TSHR ag
O=C(Nc1cc2nn(-c3ccccc3)nc2cc1Cl)c1ccco1	5.2e-09	i	i	1.9%	5.2%
OCc1n[nH]c(CO)n1	1.35e-08	i	i	-1.3%	3.8%[11.4 µM]
Cc1nc(N2CCc3ccccc3C2)[nH]c(=O)c1CCC(C)C	2.1e-09	i	i	4.9%	-1.8%
COC(=O)c1ccc(NC(=O)NS(=O)(=O)c2ccc(C)cc2)cc1	.	.	.	-1.3%	-6.5%
O=c1c2c3nc4ccccc4nc3n(-c3ccc4c(c3)OCCO4)c2ncn1C1CCCC1	2.47e-08	i	i	6.4%	-11.0%
COCCN(CC(=O)Nc1ccccc1)S(=O)(=O)c1ccc(S(=O)(=O)N2CCCC2)cc1	1.5e-09	i	i	-1.4%	1.5%
c1ccc(-c2nnnn2CCOCCn2nnnc2-c2ccccc2)cc1	1.73e-08	i	i	-1.8%	0.1%
OCCNc1nc(N2CCN(Cc3ccccc3)CC2)nc2ccccc12	3.17e-08	i	i	-0.5%	-15.6%

Reformatted with values under each structure: part of the list above
The line under a structure holds: A647 fluor, A488 fluor, Resorufin fluor, AID923, TSHR ag
> OCc1n[nH]c(CO)n1
 : 1.35e-08, i, i, -1.3%, 3.8%[11.4 µM]
> Cc1nc(N2CCc3ccccc3C2)[nH]c(=O)c1CCC(C)C
 : 2.1e-09, i, i, 4.9%, -1.8%
> COC(=O)c1ccc(NC(=O)NS(=O)(=O)c2ccc(C)cc2)cc1
 : ., ., ., -1.3%, -6.5%

Next part
compound	A647 fluor	A488 fluor	Resorufin fluor	AID923	TSHR ag
CCc1ccc(N2CC34C=CC(O3)C(C(=O)OC(C)C)C4C2=O)cc1 (stereo not drawn)	.	.	.	2.4%	?
CCOC(=O)c1ccc2c(c1)NC(=O)C(N1CCN(c3ccc(OC)cc3)CC1)S2 (stereo not drawn)	.	.	.	-2.3%	1.0%
Cc1ccc(S(=O)(=O)N2CCOCC2)c(C)c1-n1cnnn1	1e-09	i	i	0.3%	0.8%
CC1CN=C(N(C(=O)Nc2ccccc2)c2ccc(S(=O)(=O)N3CCOCC3)cc2)S1 (stereo not drawn)	1.6e-09	i	i	-2.1%	8.7%
O=c1oc2ccccc2n1CCc1ccccc1	1.79e-08	i	i	-0.3%	.
CCOC(=O)N1CCN(CCC(=O)c2ccc(Cl)cc2)CC1	1e-09	i	i	2.1%	?
CCOc1ccc(N2CC(C(=O)Nc3ccccc3F)CC2=O)cc1 (stereo not drawn)	1e-09	i	i	1.3%	-1.4%
CCOC(=O)c1ccc(NC(=O)CSc2nc(C)cc(=O)[nH]2)cc1	.	.	.	-4.1%	-5.2%

New compounds follow.
compound	A647 fluor	A488 fluor	Resorufin fluor	AID923	TSHR ag
Cc1ccc(S(=O)(=O)N(C)Cc2nc(-c3ccncc3)no2)cc1	1e-09	i	i	0.5%	0.0%
CCOC(=O)c1nn(-c2ccc(OC)cc2)c(=O)c2c(N)scc12	1e-09	i	i	4.3%	-2.4%
O=C(c1ccco1)N1CCN(C(=O)C2CCN(S(=O)(=O)c3cccs3)CC2)CC1	1e-09	i	i	0.2%	-1.4%
Cn1c(CN2CCCCC2)nc2cc(NC(=O)c3ccc(F)cc3)ccc21	2.3e-09	i	i	-0.3%	21.6%
CCOC(=O)N1CCC(NC(=O)CCC(=O)c2ccccc2)CC1	1e-09	i	i	2.5%	-4.8%
CCc1nn(-c2cc(Cl)ccc2OC)c2c1C(=O)CCC2	1.8e-09	i	i	0.5%	?
CC(=O)N=C(N)Sc1nc2ccccc2[nH]1	4.15e-08	i	i	.	.
c1ccc(-c2nnc3ccc(N4CCC5(CC4)OCCO5)nn23)cc1	.	.	.	3.9%	14.9%

(cont.)
compound	A647 fluor	A488 fluor	Resorufin fluor	AID923	TSHR ag
COc1ccc(S(=O)(=O)N(C)CC(=O)Nc2ccccc2C(F)(F)F)cc1	4.7e-09	i	i	-0.8%	-1.8%
CCOc1ccccc1N(CC(=O)Nc1ccccc1C(=O)OC)S(C)(=O)=O	.	.	.	2.4%	-1.5%[11.4 µM]
CN1CCN(C(=O)c2ccc3c(=O)n(CCc4ccccc4)c(=S)[nH]c3c2)CC1	1.7e-09	i	i	-0.6%	-2.5%
CCOc1cc(N2CCOCC2)c(OCC)cc1NC(=O)CCC1CCCC1	6.6e-09	i	i	-0.2%	1.3%
COc1ccc(NS(=O)(=O)c2cccc(-c3nnc4n3CCCCC4)c2)cc1	1e-09	i	i	-0.5%	?
O=C(NCc1ccc(F)cc1)c1ccc(CS(=O)(=O)Cc2ccc(F)cc2)o1	1e-09	i	i	-1.9%	13.6%
OC1(Cc2ccn[nH]2)CCCCC1	4.1e-09	i	i	0.3%	.
CN(C)C=Nc1ncc2c([nH]c3ccccc32)c1C#N	4.41e-08	i	i	3.3%	-23.5%

(listing goes on)
compound	A647 fluor	A488 fluor	Resorufin fluor	AID923	TSHR ag
CCCCC(CC)COP(=O)(OCC(CC)CCCC)OCC(CC)CCCC (stereo not drawn)	.	.	.	0.0%	8.1%
CN(CCc1ccccn1)Cc1ccc(Cl)cc1Cl	.	.	.	-1.7%	10.3%[11.4 µM]
CCCCC(O)(C(NC=O)C(=O)OC)C(F)(F)F (stereo not drawn)	2.1e-08	i	i	-0.4%	1.3%
CCCOc1ccc(C(CC(=O)O)NS(=O)(=O)c2ccc(NC(C)=O)cc2)cc1 (stereo not drawn)	2.6e-09	i	i	-0.3%	0.1%
COc1ccc(NC(=O)C2CCN(c3cc(C)nc(-c4ccccc4)n3)CC2)cc1	3.7e-09	i	i	-0.3%	-0.5%
O=C(CCCc1nc(-c2ccccc2)no1)Nc1cccnc1	5.7e-09	i	i	-0.3%	-4.0%
COc1ccc(-n2c(Cc3cccn3C)nnc2SCC(=O)N2CCC(C)CC2)cc1	.	.	.	-2.4%	?
COc1ccc(OC)c(NS(=O)(=O)c2ccc3c(c2)CCC(=O)N3)c1	1.8e-09	i	i	0.8%	2.4%

Additional results follow.
compound	A647 fluor	A488 fluor	Resorufin fluor	AID923	TSHR ag
CCOC(=O)c1nnn(-c2nonc2N)c1-c1ccccc1	.	.	.	0.4%	3.5%
Cc1noc(C)c1CSc1cc(C)c2ccccc2n1	1.11e-08	i	i	-1.0%	?
C=CCn1c(=O)c(C(=O)NCCc2ccccc2)c(O)c2ccccc21	.	.	.	1.8%	18.2%
CCOC(=O)C1=C(N)OC2=C(C(=O)CCC2)C1c1cccnc1 (stereo not drawn)	2.48e-08	i	i	-0.6%	7.6%
CCCN(c1ccc(C(C)C)cc1)S(=O)(=O)c1c(C)noc1C	1e-09	i	i	0.2%	?
COc1ccc(B(O)O)cc1	.	.	.	-1.2%	2.1%
O=c1ccnc(SCc2ccc(Cl)cc2)[nH]1	2.08e-08	i	i	0.0%[11.5 µM]	0.3%[11.4 µM]
CCOc1ccc(OCC)c(NC(=O)C2C3C=CC(O3)C2C(=O)NCc2ccco2)c1 (stereo not drawn)	1e-09	i	i	-2.3%	-3.0%
CCC(C)NC(=O)C(NS(=O)(=O)c1ccc2c(c1)c(=O)n(C)c(=O)n2C)c1ccccc1 (stereo not drawn)	.	.	.	-3.3%	2.4%

Screening data (PubChem)
